High-throughput results deposited in PubChem by National Center for Advancing Translational Sciences (NCATS).
Vaccinia mCherry: vaccinia inhibition (mCherry reporter) | Vaccinia virus mCherry reporter infection, fluorescence; about a quarter of the inactives have no number | Potency, µM (titrated, usually from 36.5 µM), without a hit: top-dose activity change, negative = inhibition, hits mostly inhibitors | actives 0.63% (n = 310,000) | AID 720579; active = well fitted inhibition curve with a large enough effect; inconclusive = small, poorly fitted or top-dose-only effect; inactive = no such curve, though single readings can be large or run the other way; tested in A549 cells; note: nearly all actives have a fitted effect of over 35% in size; inactives centre near -10
Vaccinia Venus: vaccinia inhibition (Venus reporter); Vaccinia virus Venus reporter expression, fluorescence; Potency, µM (doses to about 36.5 µM), for inactives: top-dose activity change, negative = inhibition, usual class: inhibitors; actives 0.46% (n = 330,000); AID 720580; active means well fitted inhibition curve with a large enough effect; inconclusive means small, poorly fitted or top-dose-only effect; inactive means no such curve, though single readings can be large or run the other way; tested in A549 cells; note: nearly all actives have a fitted effect of over 30% in size; inactives centre near -10
* = called active by the depositor; i = inactive; u = inconclusive; x = no result given; & = joins results of further samples; [ ] = another dose, or the depositor's remark. % is set by controls: 0 for no effect and ±100 for the full control effect; potency is the fitted concentration of half-maximal effect.

No. | mol | Vaccinia Venus | Vaccinia mCherry
1 | Cc1ccc(OS(=O)(=O)c2ccc(N3C(=O)CCC3=O)cc2)cc1 | 5% | 8%
2 | COc1ccc(C(=O)C2CCN(C(=S)NCC3CCCO3)CC2)cc1 (configuration not stated) | -8% | i
3 | O=C(Cc1ccc2c(c1)OCCO2)N1CCN(c2ccccc2)CC1 | -14% | 0%
4 | COc1cccc(N2CCN(C(=O)Cn3c(=O)oc4ccccc43)CC2)c1 | -13% | -11%
5 | COc1ccc2nc(NC(=O)c3ccc4ncsc4c3)sc2c1 | u | -12%
6 | OC(CNCCc1ccccc1)c1ccccc1 (configuration not stated) | -7% | -13%
7 | COc1ccccc1NC(=O)CC(=O)c1ccccc1 | -16% | i
8 | CCN(CC)S(=O)(=O)c1ccc(Oc2ccccc2OC)cc1 | 7% | -22%
9 | CC(CC(=O)c1ccccc1)=NCCCN=C(C)CC(=O)c1ccccc1 | -11% | i
10 | Cc1c(C)n(CC(O)CN(CCO)CCO)c2ccccc12 (configuration not stated) | -11% | -8%
11 | CC(Sc1nnc2ccccn12)C(=O)N1CCc2ccccc2C1 (configuration not stated) | -5% | x
12 | CCOC(=O)c1cc(-c2ccc(OC)cc2)n(CCC(=O)NC2CCN(Cc3ccccc3)CC2)c1C | u | -22%
13 | COC(=O)[C@]1(C)N[C@H](c2ccc(-c3cccc(Cl)c3)c(OC)c2)[C@@H]2C(=O)N(C)C(=O)[C@@H]21 | -8% | i
14 | CN(C)c1ccc(/C=C/c2ccnc3ccccc23)cc1Br | -18% | -9%
15 | COc1cccc(NC(=O)c2ccc3nsnc3c2)c1 | 1% | 25%
16 | O=C(CN(Cc1ccccc1Cl)C(=O)c1csnn1)NCc1ccccc1 | -13% | -8%
17 | O=C(O)Cc1ccc(O)c(O)c1 | -6%&-5% | i
18 | CC(C)(C)NC(=O)CN(C(=O)CS(=O)CC(=O)Nc1ccc(F)cc1)c1ccccc1 (configuration not stated) | -4% | -6%
19 | Cn1nc(C(F)(F)F)c(C#N)c1N1CCN(c2ccccc2F)CC1 | -16% | x
20 | Cc1ccc(C)c(N(CC(=O)Nc2ccc(-c3nc4ccc(C)cc4s3)cc2)S(C)(=O)=O)c1 | -30% | -12%
21 | O=c1c2ccccc2nc(-c2ccccc2)n1CCCn1ccnc1 | -8% | -10%
22 | COc1ccc(OC)c(NC(=O)CN(c2ccc(C(C)C)cc2)S(=O)(=O)c2c(C)noc2C)c1 | -26% | -5%
23 | CSc1ccc(CN2CCC(C)(Oc3cccc(Cl)c3)C2)cc1 (configuration not stated) | -7% | 16%
24 | Cc1cccc2c1-c1sc(C(=O)N3CCN(c4ccccc4)CC3)cc1CO2 | 10% | 1%
25 | CCCCNCC(=O)Nc1ccc(NC(=O)CNCCCC)cc1 | -12% | i
26 | Cc1nnc(SCC(=O)Nc2ncc(Cl)cc2Cl)n1Cc1ccccc1 | -3% | x
27 | CCOc1ccc(-n2c(SCc3ccc(C#N)cc3)nnc2-c2cccnc2)cc1 | -28% | -15%
28 | CCCCn1cnc2c(cnn2-c2ccc(F)cc2)c1=O | -24% | x
29 | CCc1n[nH]c2c1/C(=N/O)CCC2 | 2% | x
30 | O=C(Nc1ccc(-c2nc3cc(Cl)ccc3o2)cc1)c1cc(Br)ccc1Cl | u | u
31 | CC1CCCC(NC(=O)c2ccc(F)c(S(=O)(=O)N3CCOCC3)c2)C1C (configuration not stated) | -21% | 0%
32 | O=C(CN1C(=O)NC2(CCCC2)C1=O)Nc1ccccc1-c1ccccc1 | -9% | -3%
33 | CC1=C(C(=O)N(C(C)C)C(C)C)CC(CC(=O)NCCCN(C)C)C(=O)N1CCC1=CCCCC1 (configuration not stated) | -13% | i
34 | S=C(Nc1ccccc1)N1CCC(C2CCN(C(=S)Nc3ccccc3)CC2)CC1 | -9% | -8%
35 | O=C1CN(C(=O)COC(=O)/C=C/c2ccc(F)cc2)c2ccccc2N1 | -14% | -15%
36 | CCN1C(=NCCCCO)N[C@@H](c2cccc(C(F)(F)F)c2)C(C(=O)OC)=C1C | -9% | -10%
37 | CC(=O)c1c(C)[nH]c(C(=O)NCc2ccc(C)cc2)c1C | -12% | -18%
38 | O=C(COC(=O)CNS(=O)(=O)c1c(Cl)cccc1Cl)Nc1cccnc1Cl | -10% | -10%
39 | CCOc1ccc(-c2nonc2NC(=O)COc2ccccc2)cc1 | -12% | -6%
40 | CCC(=O)N1c2ccc(S(=O)(=O)CCC(=O)Nc3ccc(Br)c(C)c3)cc2CC1C (configuration not stated) | -27% | u
41 | COc1ccc(Cc2noc(CN(C)C3CC(C)(C)NC(C)(C)C3)n2)cc1OC | 24% | -4%
42 | C[C@H]1CN([C@@H](C)CO)C(=O)c2cc(-c3cccc(C#N)c3)cnc2O[C@H]1CN(C)C(=O)c1ccccn1 | -5% | -15%
43 | Clc1ccc(CSc2nnc(-c3ccccn3)n2Cc2cccs2)cc1Cl | 0% | 1%
44 | N#C/C(=C\c1cccs1)C(=O)NCc1ccco1 | 2% | -14%
45 | Cc1cccc(C)c1N(CC(=O)NCc1ccco1)C(=O)CNS(=O)(=O)c1ccc(F)cc1 | -14% | i
46 | Cc1nc2ccc(C(=O)NCCc3c[nH]c4ccccc34)cn2c1N(C)C(=O)CCc1ccccc1 | -6% | 8%
47 | COc1c(C)cc(C(=O)C2CCCN(S(=O)(=O)c3c(C)noc3C)C2)cc1C (configuration not stated) | -9% | -6%
48 | CN(C)C=Nc1ccc(Cl)c(Cl)c1 | 0% | -5%
49 | O=C(Nc1ccc(S(=O)(=O)N2CCCCC2)cc1)C1CC(=O)N(c2ccccc2)C1 (configuration not stated) | 10% | 16%
50 | NC(Cc1ccc(F)cc1)c1csc(Nc2ccc(C(F)(F)F)cn2)n1 (configuration not stated) | u | u
51 | CCCCNC(=S)NNC(=O)c1cc(C2CC2)nc2ccccc12 | -11% | -13%
52 | CCN(CC)c1ccc(C2NCC(c3ccc([N+](=O)[O-])cc3)O2)cc1 (configuration not stated) | -10% | i
53 | CCc1cccc(C)c1NC(=O)c1cccc(N(C)C)c1 | -2% | 0%
54 | O=C(O)c1ccc(CSCc2ccccc2)o1 | 2% | -14%
55 | CCOc1ccc(CN(C)c2nc(-c3cccnc3)nc3ccccc23)cc1OC | u | u
56 | COc1ccc(NC(=O)CSC2=Nc3ccccc3C3=NC(Cc4ccccc4)C(=O)N23)cc1Cl (configuration not stated) | -12% | -20%
57 | Cc1ccc(OCCOCCNC(C)C)c(Br)c1 | -22% | -22%
58 | c1ccc(Cc2c(C3CCCCC3)nc3c4ccccc4ccn23)cc1 | 7% | 30%[activator]
59 | COc1ccc(-n2nc([N+](=O)[O-])c(=NCCc3cccc(C)c3)n2O)cc1 | -4% | u
60 | CCN(c1cccc(C)c1)C1C(=O)c2ccccc2N1C(C)=O (configuration not stated) | -6% | -15%

More records follow.
No. | mol | Vaccinia Venus | Vaccinia mCherry
61 | CCc1nn2c(=O)cc(COC(=O)c3ccc(NC(=O)c4cccs4)cc3)nc2s1 | -10% | -13%
62 | COc1ccc(CN(C)CC(=O)NC(=O)NCc2ccccc2)c(OC)c1 | -12% | -25%
63 | CC(C)CC1c2[nH]c3ccccc3c2CCN1C(=O)c1cnccn1 (configuration not stated) | 20% | -23%
64 | COC(=O)c1cn(-c2ccccc2)nc1-c1ccncc1 | 0% | -6%
65 | COc1ccc(CC(=O)N[C@@H](C)C(=O)N2CCC3(CC2)NCCc2[nH]cnc23)cc1 | -14% | u
66 | CSCCC(NS(=O)(=O)c1ccccc1)C(=O)OCc1nc2ccsc2c(=O)[nH]1 (configuration not stated) | -4% | -9%
67 | CCCn1nnc(NC(=O)c2ccc(-c3ccccc3)cc2)n1 | -22% | i
68 | Cc1ccc(CN2CC[C@H]3C=CCc4cccc(c43)C2)cc1 | -6% | i
69 | CCC1CCCCN1CCCNC(=O)Cn1nc(-c2ccccc2)ccc1=O (configuration not stated) | -11% | -6%
70 | O=C(O)CSc1c2c(nc3cc(C(=O)N4CCCC4)ccc13)CCCC2 | -20% | -20%
71 | CCOC(=O)CCN(c1ccccc1)S(=O)(=O)c1cc(-c2cc(C)no2)ccc1C | -7% | 0%
72 | CCNc1nc(-c2ccc(Cl)cc2)cs1 | -29% | -30%
73 | Cc1cc(NCCCn2ccnc2)n2nc(-c3ccc(F)cc3)cc2n1 | -19% | i
74 | Cc1cc(-c2nc3cccnc3s2)ccc1NS(=O)(=O)c1cccs1 | -4% | -21%
75 | CN(Cc1ccccc1)C(=O)C(=O)Nc1ccc2nc3n(c(=O)c2c1)CCCCC3 | -7% | 13%
76 | CC(=O)OC1CC(OC(C)=O)[C@]2(C)C(CC(OC(C)=O)[C@@]3(C)C4=CC(=O)OC(c5ccoc5)[C@]4(C)CCC32)C1(C)C (some centres not stated) | -8% | -15%
77 | Cc1nc2cc(-c3ccccc3)nn2c(C)c1CCC(=O)NCCc1ccccc1 | -6% | -13%
78 | COc1ccccc1Cc1nc2ccccc2nc1SCC(=O)N(C)c1ccc(F)cc1 | -4% | i
79 | CCN1CCSc2ccc(C(=O)NCc3ccccc3Br)cc21 | -14%&-16% | -15%&-18%
80 | O=C1c2ccccc2-c2onc3c(N4CCN(CCO)CC4)cc(N4CCN(C(=O)c5ccco5)CC4)c1c23 | 233%[activator] | u
81 | CCN(CC)S(=O)(=O)c1ccc(NC(=O)c2ccc(N3CCCC3=O)cc2)cc1 | -12% | -19%
82 | Cc1cccc(-n2ncc3c(Nc4c(C)cc(C)cc4C)ncnc32)c1 | -21% | u
83 | COc1ccc(-c2noc(C)c2-c2ccc3ccccc3n2)c(O)c1 | u | -22%
84 | O=C(Nc1c(C(=O)N2CCN(c3ccccc3)CC2)oc2ccccc12)c1ccco1 | -5% | -13%
85 | CSc1ccc(CNC(=O)C2(C)CCN2C(C)C)cc1 (configuration not stated) | -5% | 3%
86 | CC(C)C(OC(=O)CN1C(=O)c2ccccc2C1=O)C(=O)NC1CCCCC1 (configuration not stated) | -13% | -12%
87 | Cc1ccc(N2CCN(C(=O)C(=O)c3ccc(F)c(F)c3)CC2)cc1 | -12% | u
88 | Cc1ccc(C(=O)OCC(=O)NC(=O)c2ccccc2)o1 | 1% | 5%
89 | COc1ccccc1C(CNC(=O)CNC(=O)c1ccc(C)c(C)c1)N1CCCC1 (configuration not stated) | -20% | i
90 | Cc1cc2oc(=O)ccc2cc1[N+](=O)[O-] | -5% | -11%

By substructure: those above containing a COOH group
No. | mol | Vaccinia Venus | Vaccinia mCherry
17 | O=C(O)Cc1ccc(O)c(O)c1 | -6%&-5% | i
54 | O=C(O)c1ccc(CSCc2ccccc2)o1 | 2% | -14%
70 | O=C(O)CSc1c2c(nc3cc(C(=O)N4CCCC4)ccc13)CCCC2 | -20% | -20%

The listing continues.
No. | mol | Vaccinia Venus | Vaccinia mCherry
91 | Cc1cc(=O)n2c(C(=O)Nc3ccc(C)c(C)c3)c(C(=O)Nc3ccccc3)sc2n1 | 6% | 14%
92 | CCOC(=O)c1sc2ncn(CC(=O)Nc3ccc(C)cc3C)c(=O)c2c1C | -1% | -10%
93 | Cc1ccc2[nH]c3c(c2c1)CCc1cn[nH]c1-3 | -15% | -23%
94 | CC(C)(CC(=O)OCC(=O)Nc1ccc(F)c(Cl)c1)CC1=NS(=O)(=O)c2ccccc2N1 | -28% | -17%
95 | COc1ccc2c(c1)C(=O)CC(c1ccccc1F)O2 (configuration not stated) | -14% | -18%[1.46 µM]
96 | S=c1nn[nH]c2ccccc12 | -15% | i
97 | COc1c(/C=C2/C(=O)NC(=O)N(C)C2=O)c(CCN(C)C(=O)c2ccccc2)cc2c1OCO2 | -1% | -10%
98 | O=C(CN1CCCCCC1)NCCN1C(=O)S/C(=C\c2ccccc2Cl)C1=O | -6% | -14%
99 | Cc1cc(C)n2nc(SCC(=O)Nc3ccc(F)cc3[N+](=O)[O-])nc2n1 | 0% | -13%
100 | COc1cc2c(cc1OC)CN(C(=O)CNS(=O)(=O)c1ccc(C)c(C)c1)CC2 | -2% | -8%
101 | Cc1ccc(CCNC(=O)Cn2ccc3cc(S(=O)(=O)N4CCCC4)ccc32)cc1 | -13% | -6%
102 | CCOC(=O)CC1COCCN1C(=O)c1cc(COc2ccccc2SC)on1 (configuration not stated) | -4% | i
103 | COc1ccccc1CNC(=O)c1cc2sccc2n1Cc1ccc(Cl)cc1 | -4% | -7%
104 | O=C(CN1CCN(c2ccc(F)cc2)CC1)Nc1ccc(S(=O)(=O)N2CCOCC2)cc1 | -11% | -20%
105 | CCS(=O)(=O)c1nc2ccccc2n1Cc1ccccn1 | -11% | -1%
106 | CC(=O)c1ccc(NC(=S)NC(C)c2ccc(Cl)cc2Cl)cc1 (configuration not stated) | -12% | 0%
107 | O=C(COc1ccc(Cl)cc1)NCc1cn2cc(Cl)ccc2n1 | -13% | -16%
108 | CCCNC(=O)c1cnc(Sc2ncc(C(F)(F)F)cc2Cl)n1C | u | x
109 | O=C(CSc1ccc(-c2ccncc2)nn1)N1CCCC1 | -9% | -17%
110 | CCSc1nnc(Cn2c(=O)sc3ccccc32)n1C | -1% | -12%
111 | CC(C)Sc1nc2ccc(N3C(=O)C4CCCCC4C3=O)cc2s1 (configuration not stated) | -1% | -14%
112 | CC(C)C(C)NC(=O)COc1ccc(OCc2ccccc2)cc1 (configuration not stated) | -3% | 2%
113 | COc1ccc(NC(=O)Nc2ccc3nc([C@@H]4O[C@H](CO)[C@@H](O)[C@H](O)[C@H]4O)[nH]c3c2)cc1OC1CCCC1 | 6% | 39%[activator]
114 | CCOC(=O)/C=c1/s/c(=C/c2ccc3cc(OC)ccc3c2)c(=O)n1CC(=O)NCc1ccc2c(c1)OCO2 | -2% | i
